# PV pol inh: poliovirus RNA polymerase inhibition. 0.66% of 150,000 active. % elongation, % (compound at 16.7 µg/mL). poliovirus polymerase elongation, fluorescence polarization; hits give low values; in the data active means % elongation below about 90%; further: some results filed as inactive read as strong as hits
# Target sequence (P03300 1749-2209 limits assumed): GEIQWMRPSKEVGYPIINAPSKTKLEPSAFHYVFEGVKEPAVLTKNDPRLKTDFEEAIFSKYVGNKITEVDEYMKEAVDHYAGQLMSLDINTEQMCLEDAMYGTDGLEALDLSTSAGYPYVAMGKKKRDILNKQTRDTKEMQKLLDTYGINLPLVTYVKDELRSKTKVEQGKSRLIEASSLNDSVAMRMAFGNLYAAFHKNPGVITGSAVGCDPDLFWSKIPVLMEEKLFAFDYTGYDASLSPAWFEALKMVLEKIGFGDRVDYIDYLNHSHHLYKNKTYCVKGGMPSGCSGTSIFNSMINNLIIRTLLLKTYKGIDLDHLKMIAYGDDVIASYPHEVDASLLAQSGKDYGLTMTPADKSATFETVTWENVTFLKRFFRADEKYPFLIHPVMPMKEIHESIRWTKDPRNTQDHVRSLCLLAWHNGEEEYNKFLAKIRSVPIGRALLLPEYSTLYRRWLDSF
# PV pol inh intensity: also measured in PV pol inh; calls as there; % elongation; measured here: total intensity read-out; formula for this scale not given here;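 total fluorescence in place of polarization; lower means less elongation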
# Starred values were filed as active, the others as inactive. Some of the compounds tested; count on the stated rates, not on these rows.
# Sample of the layout:
# Below each SMILES: PV pol inh | PV pol inh intensity
COc1cc(CNCCSc2nnnn2C)ccc1OCc1ccccc1C
→ 109 | 107
CCOc1ccccc1CNC(=O)CCCn1c(=O)c2cccn2c2cccnc21
→ 104 | 103
Cc1cc(N2CCC(C)CC2)nc2ccc(NC(=O)CCC(=O)N3CCN(c4ccccc4F)CC3)cc12
→ 103 | 103

# Results, from the start:
# Below each SMILES: PV pol inh | PV pol inh intensity
COc1cc(CNCCSc2nnnn2C)ccc1OCc1ccccc1C
→ 109 | 107
CCOc1ccccc1CNC(=O)CCCn1c(=O)c2cccn2c2cccnc21
→ 104 | 103
Cc1cc(N2CCC(C)CC2)nc2ccc(NC(=O)CCC(=O)N3CCN(c4ccccc4F)CC3)cc12
→ 103 | 103
Cc1ccc(NC(=O)Cn2c(=O)ccc3cc(S(=O)(=O)N4CCCC4)ccc32)cc1N(C)C
→ 110 | 104
Nc1c(C(=O)NCc2cccs2)nnn1CC(=O)Nc1cccc(F)c1
→ 115 | 113
COc1ccc(S(=O)(=O)NCc2nc3nc(C)cc(C)n3n2)cc1OC
→ 102 | 105
CCC(=O)N1CCc2cc(S(=O)(=O)CCC(=O)N3CCN(c4cccc(C)c4C)CC3)ccc21
→ 113 | 113
O=C(c1ccc(Cl)cc1)N1CCCCC1CCN1CCOCC1 (stereo unspecified)
→ 103 | 96
CCc1ccc(C(=O)c2cn(CC(=O)Nc3cc(F)ccc3F)c3nc(C)ccc3c2=O)cc1
→ 109 | 104
COc1ccc(-n2nnnc2C2CCN(S(=O)(=O)c3cccc(Cl)c3C)CC2)cc1
→ 115 | 113
Cc1nn(CCCC(=O)NCc2ccc(F)cc2)c(=O)c2c1sc1ccccc12
→ 116 | 112
CC1=C(c2ccc(C)c(C)c2)S(=O)(=O)N(Cc2ccc(C(=O)Nc3cc(F)ccc3F)cc2)C1=O
→ 106 | 103
CC(=O)N1CCc2c(sc3c2c(=O)n(-c2ccccc2Cl)c(=O)n3C)C1
→ 104 | 102
CCOc1cccc(Nc2nn(-c3ccc(OC(F)(F)F)cc3)nc2C(C)=O)c1
→ 109 | 114
O=c1c2cccnc2n(Cc2ccccc2F)c(=O)n1Cc1ccc(F)cc1
→ 108 | 109
CCOc1ccccc1NC(=O)c1cc2cc(C)ccc2n1C
→ 113 | 112
CCN(CC)S(=O)(=O)c1ccc(C(=O)Nc2nc3c(Cl)cc(Cl)cc3s2)cc1
→ 109 | 103
COc1ccc(-c2nc(SCC(=O)NC3CCCC3)c(-c3ccc(C)cc3)[nH]2)cc1OC
→ 108 | 108
COc1ccc(CNC(=O)c2cc3c(=O)n(C)c4ccccc4c3n2C)c(OC)c1
→ 109 | 112
Cc1ccc(C2CCN(C(=O)Nc3ccc(C)c(C)c3)C2)cc1 (stereo unspecified)
→ 100 | 102
COc1ccccc1Nc1cc(C(=O)NC2CCCC2)c2ccccc2n1
→ 104 | 107
COc1cc(/C=C(\C#N)c2nc3ccccc3[nH]2)ccc1OCc1ccccc1F
→ 106 | 112
CCN(CC)C(=O)c1sc2c(c1C)c(=O)n(CCc1ccccc1)c(=O)n2Cc1ccc(C)cc1
→ 110 | 109
COc1ccc(NC(=O)Nc2cccc(C)n2)c(OC)c1
→ 108 | 110
CCCc1cc(=O)n2[nH]c(NCc3c(F)cccc3Cl)nc2n1
→ 113 | 109
Cc1ccc(-n2nc3cc(C)c(NC(=O)COc4ccccc4)cc3n2)cc1
→ 103 | 109
Cc1ccc(NC(=O)C2CCN(C(=O)c3cnn(-c4ccccc4)c3-n3cccc3)CC2)cc1Cl
→ 107 | 112
NC(=O)CSc1ncc2c(n1)-c1ccccc1N(Cc1ccc(Cl)cc1)S2(=O)=O
→ 108 | 116
CCC(=O)N1CCc2cc(CNC(=O)c3ccc(OC)cc3)ccc21
→ 105 | 105
CCOC(=O)C1CCN(C(c2ccc(C)cc2)c2c(O)cc(C)n(CCOC)c2=O)CC1 (stereo unspecified)
→ 111 | 110

# Continuation:
# Below each SMILES: PV pol inh | PV pol inh intensity
Cc1cc(C)cc(NC(=O)CCN2C(=O)c3ccccc3Sc3ncccc32)c1
→ 102 | 105
CCN(Cc1ccccc1)Cc1c(O)ccc2c(=O)c(-c3ccccc3Cl)c(C(F)(F)F)oc12
→ 102 | 102
CCOC(=O)CC(=O)CSc1nc2ccccc2c(=O)n1CCc1ccc(S(N)(=O)=O)cc1
→ 104 | 106
CC(C)CN(CCNC(=O)c1cc(-c2ccc(Cl)s2)nc2ccccc12)CC(C)C
→ 102 | 105
Cc1cccc(C)c1NC(=O)C1CCCN(S(=O)(=O)c2c(C)noc2/C=C/N(C)C)C1 (stereo unspecified)
→ 104 | 102
CCOC(=O)C1CCCN(C(=O)Cn2ncc3c(C)n(Cc4ccc(F)cc4)c(C)c3c2=O)C1 (stereo unspecified)
→ 110 | 109
COc1ccc(CCNC(=O)CCN2N=C(c3ccccc3)CCC2=O)cc1OC
→ 97 | 109
COc1cc2c(cc1OC)n(CC(=O)c1ccc(F)cc1)c(=O)n1nc(CCn3nc(C)cc3C)nc21
→ 110 | 95
CCCCNc1nc(Oc2ccc(=O)n(C)n2)nc(N2CCOCC2)n1
→ 111 | 111
CC(C)(C)OC(=O)N1CCC(c2c(C(=O)N3CCN(c4ccccc4F)CC3)cnn2-c2ccccc2Cl)CC1
→ 110 | 113
Cc1cccc(S(=O)(=O)c2cn(C)c3cc(N4CCN(c5ccc(F)cc5)CC4)c(F)cc3c2=O)c1
→ 103 | 103
O=C1CN(C(=O)c2ccc(S(=O)(=O)N3CCCCC3)cc2)C(c2ccc(F)cc2)c2cc(Br)ccc2N1 (stereo unspecified)
→ 101 | 103
Cc1cc(C)c(NC(=O)c2sc3nc(C)cc(C)c3c2N)c(C)c1
→ 104 | 105
CCOc1ccc(C(=O)Nc2ccc3nc(Nc4cccc(C(F)(F)F)c4)cc(C)c3c2)cc1OCC
→ 113 | 112
Cc1ccccc1NC(=O)Cn1nnc(C(=O)NCc2ccco2)c1N
→ 113 | 114
Cc1ccc(-c2cc(C(F)(F)F)n3nc(C(=O)Nc4sc5c(c4C#N)CCC(C)C5)cc3n2)cc1 (stereo unspecified)
→ 108 | 111
CC(C)c1ccc(NC(=O)C2CCCN2S(=O)(=O)c2ccc3nc(-c4ccccc4)[nH]c3c2)cc1 (stereo unspecified)
→ 106 | 111
CCCCNC(=O)c1c(C)oc2ncn(CC(C)C)c(=O)c12
→ 104 | 100
Cc1ccc(S(=O)(=O)c2nnn3c2nc(NCc2cccs2)c2sccc23)cc1C
→ 109 | 114
CCOC(=O)c1scc(-c2ccc(C)cc2)c1S(=O)(=O)Nc1cccc(CC)c1
→ 100 | 107
COc1ccc(NC(=O)Cn2c(=O)n(Cc3nc(-c4ccccc4)no3)c(=O)c3cc4c(cc32)OCO4)cc1Cl
→ 112 | 115
COc1ccc(-c2nc3ccc(NS(C)(=O)=O)cc3o2)cc1
→ 108 | 104
CCOc1ccc(C(=O)Nc2ccc(S(=O)(=O)N3CCCCC3c3cccnc3)cc2)cc1 (stereo unspecified)
→ 101 | 108
Cc1ccc(-n2ncc3c(N4CCN(Cc5ccccc5)CC4)ncnc32)cc1C
→ 100 | 107
CCCCN(CC)CCCNC(=O)c1sc2nc(C)cc(C)c2c1-n1cccc1
→ 101 | 86
CCOC(=O)c1cc(-c2ccccc2)n(CC(=O)NC(C)c2ccccc2)c1C (stereo unspecified)
→ 104 | 110
CCOc1ccc(NC(=O)Cn2cc(C(=O)c3ccccc3)c3ccccc32)cc1
→ 104 | 103
COc1ccc(N(CC(=O)N2CCN(c3ccc(F)cc3)CC2)S(=O)(=O)c2c(C)noc2C)cc1
→ 111 | 108
Cc1cc(C)cc(OCCOCCn2c(-c3ccc(Cl)cc3)nc3ccccc3c2=O)c1
→ 103 | 102
CCOC(=O)Cn1c(=O)c2c(nc(N3CCOCC3)n2Cc2ccccc2)n(C)c1=O
→ 101 | 105

# Later entries.
# Below each SMILES: PV pol inh | PV pol inh intensity
CCOc1ccc(NC(=O)CSc2nnc3scc(-c4ccc(Cl)cc4)n23)cc1
→ 108 | 109
CC(C)Oc1ccc(CNS(=O)(=O)c2ccc(-c3cc(C(F)(F)F)on3)s2)cc1
→ 110 | 110
O=C(Nc1ccccc1)C1CCN(S(=O)(=O)c2ccc3[nH]c4c(c3c2)CCCCC4)CC1
→ 103 | 103
Clc1cccc(N2CCN(c3nc4ccccc4c4nc(-c5ccccc5)nn34)CC2)c1
→ 103 | 110
Cc1ccc2oc(=O)c(-c3nc4ccc(C)cc4[nH]3)cc2c1
→ 109 | 106
CCc1ccc(C(c2ccccc2)c2c[nH]c3ccc(C)cc23)s1 (stereo unspecified)
→ 108 | 115
CC1CCc2c(sc3nnn(CC(=O)Nc4ccc(Cl)cc4)c(=O)c23)C1 (stereo unspecified)
→ 104 | 110
COc1ccc2nc(N(Cc3cccnc3)C(=O)Cc3ccccc3)sc2c1
→ 107 | 97
Cc1cccc(NC(=O)C2CCN(S(=O)(=O)c3c(C)noc3/C=C/c3ccco3)CC2)c1C
→ 107 | 108
CCc1ccccc1NC(=O)c1ccc(CN2C(=O)CCn3nc(C)cc32)cc1
→ 113 | 111
COc1ccc(CCNC(=O)CCn2c(=O)c3cccn3c3ccc(F)cc32)cc1OC
→ 112 | 120
O=C(Nc1cc(C(F)(F)F)cc(C(F)(F)F)c1)c1cccn(Cc2ccccc2Cl)c1=O
→ 105 | 107
Cc1ccc(NC(=O)n2ncc3c(C)cccc32)c(C)c1
→ 112 | 114
Oc1c(C(c2ccc(Br)cc2)N2CCOCC2)sc2nc(-c3ccco3)nn12 (stereo unspecified)
→ 107 | 110
CCc1ccc(S(=O)(=O)c2cn(C)c3cc(N4CCC(C)CC4)c(F)cc3c2=O)cc1
→ 109 | 107
COc1ccc(NC(=O)CCn2cccn2)cc1OC
→ 106 | 106
COc1ccc(Cl)cc1NC(=O)CCCn1c(=O)c2cccn2c2cccnc21
→ 103 | 109
CCc1ccc(NS(=O)(=O)c2ccc(C(=O)N(C)C)s2)cc1
→ 102 | 105
CN(C(=O)Cn1ncc2c1-c1ccccc1OC2)c1ccc(Br)cc1
→ 101 | 105
CC1=C(C(=O)OC2CCCCCC2)C(c2c(Cl)cccc2Cl)CC(=O)N1 (stereo unspecified)
→ 106 | 114
CCC(Cc1ccccc1)NC(=O)Cn1nc(C)n2c(cc3occc32)c1=O (stereo unspecified)
→ 100 | 101
CCOc1cc(S(=O)(=O)NCCc2c(C)[nH]c3ccc(C)cc23)ccc1Br
→ 105 | 107
CC(=O)c1c(C)oc2c(Br)cc(NS(=O)(=O)c3ccc(Br)cc3)cc12
→ 106 | 115

# An excerpt of these results, with bars between the fields:
canonical_smiles | PV pol inh | PV pol inh intensity
Cc1ccc(NC(=O)C2CCN(C(=O)c3cnn(-c4ccccc4)c3-n3cccc3)CC2)cc1Cl | 107 | 112
NC(=O)CSc1ncc2c(n1)-c1ccccc1N(Cc1ccc(Cl)cc1)S2(=O)=O | 108 | 116
CCC(=O)N1CCc2cc(CNC(=O)c3ccc(OC)cc3)ccc21 | 105 | 105
CCOC(=O)C1CCN(C(c2ccc(C)cc2)c2c(O)cc(C)n(CCOC)c2=O)CC1 (stereo unspecified) | 111 | 110
Cc1cc(C)cc(NC(=O)CCN2C(=O)c3ccccc3Sc3ncccc32)c1 | 102 | 105
CCN(Cc1ccccc1)Cc1c(O)ccc2c(=O)c(-c3ccccc3Cl)c(C(F)(F)F)oc12 | 102 | 102
CCOC(=O)CC(=O)CSc1nc2ccccc2c(=O)n1CCc1ccc(S(N)(=O)=O)cc1 | 104 | 106
CC(C)CN(CCNC(=O)c1cc(-c2ccc(Cl)s2)nc2ccccc12)CC(C)C | 102 | 105
Cc1cccc(C)c1NC(=O)C1CCCN(S(=O)(=O)c2c(C)noc2/C=C/N(C)C)C1 (stereo unspecified) | 104 | 102
CCOC(=O)C1CCCN(C(=O)Cn2ncc3c(C)n(Cc4ccc(F)cc4)c(C)c3c2=O)C1 (stereo unspecified) | 110 | 109
COc1ccc(CCNC(=O)CCN2N=C(c3ccccc3)CCC2=O)cc1OC | 97 | 109
COc1cc2c(cc1OC)n(CC(=O)c1ccc(F)cc1)c(=O)n1nc(CCn3nc(C)cc3C)nc21 | 110 | 95
CCCCNc1nc(Oc2ccc(=O)n(C)n2)nc(N2CCOCC2)n1 | 111 | 111
CC(C)(C)OC(=O)N1CCC(c2c(C(=O)N3CCN(c4ccccc4F)CC3)cnn2-c2ccccc2Cl)CC1 | 110 | 113
Cc1cccc(S(=O)(=O)c2cn(C)c3cc(N4CCN(c5ccc(F)cc5)CC4)c(F)cc3c2=O)c1 | 103 | 103
O=C1CN(C(=O)c2ccc(S(=O)(=O)N3CCCCC3)cc2)C(c2ccc(F)cc2)c2cc(Br)ccc2N1 (stereo unspecified) | 101 | 103
Cc1cc(C)c(NC(=O)c2sc3nc(C)cc(C)c3c2N)c(C)c1 | 104 | 105
CCOc1ccc(C(=O)Nc2ccc3nc(Nc4cccc(C(F)(F)F)c4)cc(C)c3c2)cc1OCC | 113 | 112
Cc1ccccc1NC(=O)Cn1nnc(C(=O)NCc2ccco2)c1N | 113 | 114
Cc1ccc(-c2cc(C(F)(F)F)n3nc(C(=O)Nc4sc5c(c4C#N)CCC(C)C5)cc3n2)cc1 (stereo unspecified) | 108 | 111

# Screens from PubChem BioAssay.
